TNF death inh – TNF-alpha cell death inhibition in Jurkat FADD-/- cells; activation (protection from cell death), % at 10 µM; hit rate 0.068% among 220,000; AID 463075; Jurkat FADD-/- TNF necroptosis rescue, ATP luminescence, 24 h; 0 = TNF only, 100 = no-TNF cells;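 active = activation, meaning protection from cell death, of at least 50% relative to plate controls; inactive = activation below 50%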;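 note: necroptosis triggered by 40 ng/mL TNF-alpha added together with compound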
zVAD death inh – L929 zVAD cell death inhibition | AID 1377 | viability rescue, % at 10 µM | hit rate 0.38% among 220,000 | L929 zVAD necroptosis rescue, ATP luminescence, 24 h; with zVAD 60 µM;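 active = activation, scaled between plate controls, above about 75%, limit read from the data; inactive = activation under that limit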;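 note: 0% = zVAD with DMSO and 100% = DMSO alone without zVAD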
* = called active by the depositor. Not all compounds are listed, and most or all hits are left out here.

compound | TNF death inh | zVAD death inh
O=C(N/N=C/c1ccc([N+](=O)[O-])s1)c1cccnc1 | -11.2 | 27.2
COc1ccc(/C=C/C(=O)O)cc1OC | -0.1 | 0.1
CCN(CC)CC(=O)Nc1c(C)cc(C)cc1C | -1.2 | 0.9
O=C(CCCN1CC=C(n2c(=O)[nH]c3ccccc32)CC1)c1ccc(F)cc1 | 2.2 | 1.6
O=C(O)c1cccnc1SCCc1ccccc1 | -0.5 | 0.6
CN([C@@H](Cc1ccc(OS(=O)(=O)c2cccc3cnccc23)cc1)C(=O)N1CCN(c2ccccc2)CC1)S(=O)(=O)c1cccc2cnccc12 | -13.7 | 2.7
COc1cc(NS(=O)(=O)c2ccc(NC(=S)NC(=O)c3cccs3)cc2)nc(OC)n1 | 0.8 | 1.1
COc1ccc(CCN(C)CCCC(C#N)(c2ccc(OC)c(OC)c2)C(C)C)cc1OC (centres undefined) | 3.8 | 0.8
Nc1ncnc2c1cnn2-c1ccccc1 | -4.5 | 1.5

Quoted from above for reference:
compound | TNF death inh | zVAD death inh
O=C(N/N=C/c1ccc([N+](=O)[O-])s1)c1cccnc1 | -11.2 | 27.2
COc1ccc(/C=C/C(=O)O)cc1OC | -0.1 | 0.1
CCN(CC)CC(=O)Nc1c(C)cc(C)cc1C | -1.2 | 0.9
O=C(CCCN1CC=C(n2c(=O)[nH]c3ccccc32)CC1)c1ccc(F)cc1 | 2.2 | 1.6
